Source: PubChem BioAssay (National Center for Advancing Translational Sciences (NCATS))
GLA inh pH 4.5: inhibitors of human alpha-galactosidase A at pH 4.5; P06280; 230,000 tested, under 10 active; purified enzyme, 4-MU-alpha-Gal fluorescence, pH 4.5; activity change, negative = inhibition, % at 105 µM; inconclusive = small, poorly fitted or top-dose-only inhibition, or a rising curve; inactive = flat fitted curve, though single readings scatter; no compound was filed as active;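 further: 0% = full activity with enzyme and -100% = basal without enzyme; dose as in the result columns while the protocol names 77 µM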
Target sequence (P06280 whole entry, looked up): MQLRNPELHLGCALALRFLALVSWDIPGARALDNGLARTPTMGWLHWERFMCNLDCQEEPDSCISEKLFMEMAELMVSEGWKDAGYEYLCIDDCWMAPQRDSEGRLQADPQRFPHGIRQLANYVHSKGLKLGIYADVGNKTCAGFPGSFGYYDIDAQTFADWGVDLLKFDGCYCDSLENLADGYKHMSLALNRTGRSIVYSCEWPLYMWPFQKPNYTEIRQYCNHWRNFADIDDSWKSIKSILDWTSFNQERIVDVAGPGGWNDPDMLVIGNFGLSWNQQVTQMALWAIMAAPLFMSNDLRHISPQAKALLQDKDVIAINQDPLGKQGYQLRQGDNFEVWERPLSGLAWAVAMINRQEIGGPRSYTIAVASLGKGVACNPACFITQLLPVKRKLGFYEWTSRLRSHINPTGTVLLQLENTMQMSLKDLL
* = called active by the depositor; & = joins results of further samples.

SMILES	GLA inh pH 4.5
COC(=O)[C@H](Cc1ccccc1)NC(=O)O[C@H]1C(=O)c2cc(OC)ccc2O[C@@H]1c1ccc(OC)c(Br)c1	-12.6&2.8
CC[C@@H]1C(c2cccc(Cl)c2)=NN(c2ccccc2)[C@H]1C(=O)N1CCOC1=O	6.5
O=C(O)/C=C/C=C/c1ccccc1	4.4
CC(=O)[C@@H]1[C@H]2[C@H](C(=O)[C@H]3OC[C@@H]2O3)[C@H]2C=Cc3ccccc3N21	-2.8
COC(=O)C1(C)C=CC2(CCCCC2)N1C(=O)c1ccccc1 (stereo not drawn)	5.1
CC(=O)OC1CCC2(O)CC1(C)CCC1C2CC1(C)C (stereo not drawn)	-2.9
NC(CSCSCC(N)C(=O)O)C(=O)O (stereo not drawn)	4.3
CCCC[P+](CCCC)(CCCC)Cc1ccc(NC(=O)[C@@H](Cc2ccc3ccccc3c2)NC(=NC2CCCCC2)NC2CCCCC2)cc1	-10.5
CCC(CCC(C)C1CCC2C3CC=C4CC(OC(C)=O)CC[C@@]4(C)C3CC[C@@]12C)C(C)C (stereo partly drawn)	2.6
CC/C=C\C/C=C\C/C=C\CCCCCCCCCC(=O)O	-8.6
CC(=O)OC1CC2C(C)(C)C(O)CC[C@@]2(C)C2CC[C@@]3(C)C(c4ccoc4)OC(=O)C4O[C@@]43[C@]12C (stereo partly drawn)	-6.6
CC(C)(C)OC(=O)NCCCC1=CC2=CC(=O)C(C)(OC(=O)C3CCCC3)C(=O)C2=CO1 (stereo not drawn)	-5.4
COC(=O)[C@@]1(Cc2ccc(OC)cc2)[C@H]2c3cc(C(=O)N4CCCC4)n(CCc4c[nH]c5ccc(OC)cc45)c3C[C@H]2CN1C(=O)c1ccccc1	-2.9
Nc1nc(Nc2ccccc2)nc2c1ncn2[C@@H]1O[C@H](CO)[C@H](O)[C@H]1O	4.0
O=c1cc(-c2ccccc2O)oc2ccc3ccccc3c12	-0.1
C=C1c2ccccc2O[C@H](C(=O)OCC)[C@@H]1CC(C)(C)c1ccccc1	-6.7
COc1ccc(/C=C/C2=C[C@]3(C)C[C@]2(C)[C@H](c2ccc(OC)cc2)CC3=O)cc1	-2.0
COc1ccccc1CNc1ccnc(-c2ccoc2)n1	-0.4
C=C(C(C)=O)C(O)c1cccc(Br)c1 (stereo not drawn)	-6.4
CN(Cc1ccco1)c1ncnc2ccc(-c3cccc(C#N)c3)cc12	2.6
CCCCC(=O)N(Cc1ccc(-c2ccccc2-c2nn[nH]n2)cc1)C(C(=O)O)C(C)C (stereo not drawn)	3.9
OCC1O[C@@H](OC2C(O)C(CO)O[C@@]2(CO)O[C@@H]2OC(CO)C(O)C(O)C2O)C(O)C(O)C1O (stereo partly drawn)	-2.5
CC(=O)NCCNc1ncncc1-c1ccccc1C(F)(F)F	-1.3
CC(C1OC(C)(C)C(O)C1O)C1CC[C@@]2(C)C3=CCC4C(C)(C)C(=O)CC[C@]4(C)C3CC[C@@]12C (stereo partly drawn)	-7.9
CC(C)(C)NC[C@H](O)COc1cccc2[nH]c(=O)[nH]c12	-0.4

No new results follow: two of the compounds above.
SMILES	GLA inh pH 4.5
CC(C1OC(C)(C)C(O)C1O)C1CC[C@@]2(C)C3=CCC4C(C)(C)C(=O)CC[C@]4(C)C3CC[C@@]12C (stereo partly drawn)	-7.9
CC(C)(C)NC[C@H](O)COc1cccc2[nH]c(=O)[nH]c12	-0.4

Further records
SMILES	GLA inh pH 4.5
O=C(NS(=O)(=O)c1ccc(F)cc1)O[C@@H]1C(=O)c2cc(Br)ccc2O[C@H]1c1ccc2c(c1)OCO2	-2.1
COC(=O)[C@@H]1C[C@H]1[C@@H](NC(=O)Oc1ccc(F)cc1)c1ccccc1	-4.0
COc1ccc2c(c1)O[C@@H](c1ccc3c(c1)OCO3)[C@H](OC(=O)Nc1ccc(OC(F)F)cc1)C2=O	-2.5
COC(=O)[C@@]1(Cc2ccccc2)[C@H]2c3cc(C(=O)N(C)C)n(CCO)c3C[C@H]2CN1C(=O)c1ccccc1	-6.6
COC(=O)C1=C(C(=O)OC)[C@@H]2N(C)c3ccccc3[C@@]23C[C@@H](C(=O)OC)N(S(=O)(=O)c2ccc4c(c2)OCCN4C)C3=N1	0.3
O=C(NCc1cc(F)cc2c1OCCO2)[C@H]1C[C@@H]1[C@H](NP(=O)(c1ccccc1)c1ccccc1)c1ccccc1	-5.0
N#C/C(=C(/N)Sc1ccc(N)cc1)c1ccccc1C(F)(F)F	-4.1
CC1(OC(=O)C2CCCC2)C(=O)C=C2C=C3CCCN3C=C2C1=O (stereo not drawn)	-2.0
NCCNS(=O)(=O)c1cccc2c(Cl)cccc12	-9.0&-1.5&-1.9
c1ccc(CNc2oc(-c3ccccc3)nc2-c2ccccc2)cc1	-2.2
O=c1ccc2ccc(O)c(O)c2o1	-2.1
CC1CCC2(OC1)OC1CC3C4CCC5CC(O)CCC5(C)C4=CCC3(C)C1C2C (stereo not drawn)	11.0
CCCC1OC2CC3C4CCC5=CC(=O)C=CC5(C)C4C(O)CC3(C)[C@]2(C(=O)CO)O1 (stereo partly drawn)	2.7
CCCn1c(-c2ccc(F)cc2)nc2c(NCCCN(C)C)nc(C)nc21	4.3
CC(C)(C)[Si](C)(C)c1c2c(nc3ccc(OCc4ccccc4)cc13)-c1cccc(=O)n1C2	14.4
O=c1cc(-c2ccc(O)c(O)c2)oc2cc(OC3OC(CO)C(O)C(O)C3O)cc(O)c12 (stereo not drawn)	-12.3
CC1O[C@@H](O[C@@H]2C(O)C[C@H](O[C@@H]3C(O)C[C@@H](OC4CC[C@@]5(C)C6CC(O)[C@@]7(C)C(C8=CC(=O)OC8)CC[C@@]7(O)C6CC[C@@H]5C4)OC3C)OC2C)CC(O)[C@H]1O (stereo partly drawn)	9.3
O=C(O)CC/C=C\CC[C@H]1[C@@H](N2CCCCC2)[C@@H](O)C[C@@H]1OCc1ccc(-c2ccccc2)cc1	-1.2
CC(/C=C/C(=O)NO)=C\[C@@H](C)C(=O)c1ccc(N(C)C)cc1	-13.4
CCCCNC(=O)C(c1ccc(OCC(=O)OC)c(C(=O)OC)c1)N(Cc1ccccc1)C(=O)CCCCCN1C(=O)NC(c2ccc(-c3ccccc3)cc2)C(C(=O)OCc2ccccc2)=C1C (stereo not drawn)	-4.8
COC(=O)[C@@H]1C[C@@H]2CC[C@@H](O)C[C@@H]2N1Cc1ccc(-c2ccccc2)cc1	-3.8
CC(=O)Oc1cccc(C(=O)O)c1OC(C)=O	6.8
C=C1C(=O)OC2CC1C(OC(C)=O)CC(C)=CCCC(C)=CCC[C@@]2(C)O (stereo partly drawn)	2.0
COc1cc(C[C@H]2C(=O)OC[C@@H]2Cc2ccc(OC)c(OC)c2)ccc1O	-6.1
O=C(NCc1nc2ccccc2[nH]1)[C@H]1C[C@@H]1[C@H](NP(=O)(c1ccccc1)c1ccccc1)c1ccccc1	1.0

Another view of some results above:
NCCNS(=O)(=O)c1cccc2c(Cl)cccc12
  GLA inh pH 4.5 = -9.0&-1.5&-1.9
c1ccc(CNc2oc(-c3ccccc3)nc2-c2ccccc2)cc1
  GLA inh pH 4.5 = -2.2

The list goes on.
SMILES	GLA inh pH 4.5
C=C(Nc1ccc(OCC)cc1)Nc1ccc(OCC)cc1	-7.1
O=C(Nc1ccc2ccccc2c1)[C@H]1C[C@@H]1[C@H](NP(=O)(c1ccccc1)c1ccccc1)c1ccccc1	-11.8
N#CCCn1cnc2c1NC=NC2Cl (stereo not drawn)	10.5
N#Cc1ccc(C23CC4(C2)[C@H](CN(Cc2cccnc2)[C@@H]4c2ccccc2)C3c2ccc(C(F)(F)F)cc2)cc1 (stereo partly drawn)	-10.8
NC1CCN(O)C1=O (stereo not drawn)	-1.4
Cc1cc(O)cc(O)c1C(=O)OC1(C)C(=O)C=C2C=C(/C=C/C(=O)O)OC=C2C1=O (stereo not drawn)	-8.8
CC1(O)C(=O)C=C2C=C(C3CC3)OC=C2C1=O (stereo not drawn)	-6.3
COC(=O)C1(C(=O)OC)CC2=C[C@H](CC2=O)Cc2ccccc2[C@@H]1C[N+](=O)[O-]	1.3&1.8
CCCCC/C=C\CC(O)/C=C/c1cccc(CC(O)CCCCO)n1 (stereo not drawn)	1.9&1.0
CNC(=O)[C@H](C)/C=C/C(NC(=O)OCc1ccccc1)c1ccc(C(=O)OC)cc1 (stereo partly drawn)	4.9
CCN(CC)CCCCn1c(-c2ccccc2)nc2c(NC3CCCCC3)nc(C)nc21	-9.0
CCCCCCCC/C=C\CCCCCCCC(=O)NCC(=O)O	-7.6
COC(=O)C1OC(=O)C2O[C@@]23[C@]2(C)C(OC(C)=O)CC4C(C)(C)C(=O)CC[C@]4(C)C2CC[C@@]13C (stereo partly drawn)	3.2
CC(=O)C1(C)CC2(CC(C)(C)OC2=O)C(=O)O1 (stereo not drawn)	-2.4
C=C1CCC(C2CC(=O)OC2=O)C(=O)CCC2C1CC2(C)C (stereo not drawn)	0.0
COc1cc2c(cc1OC)C(C(C(=O)N(CCc1ccc(OC)c(OC)c1OC)CCc1ccc(OC)c(OC)c1OC)c1ccccc1)=NCC2 (stereo not drawn)	-8.9
NC1(C(=O)O)CCCCC1	-4.6
CCCc1c(OCCCOc2ccc(OCC(=O)O)cc2)ccc(CC=O)c1O	-20.1
COc1ccc(Cl)cc1-c1ccc(C(=O)O)o1	1.8
COC(=O)C1C(=O)C(C(=O)/C=C/c2ccco2)C(=O)CC1(C)C (stereo not drawn)	-8.8
CC[C@H](C)[C@@H](NC(=O)O[C@H]1C(=O)c2ccc(OC)cc2O[C@@H]1c1ccc2c(c1)OCO2)C(=O)OC	-13.7&-5.0
CC(C)(C)OC(=O)NCCCCC1=CC2=CC(=O)C(C)(OC(=O)c3ccco3)C(=O)C2=CO1 (stereo not drawn)	-2.4
C[C@H]1C(O)[C@@]23CCC4C5(C=[N+](CCO)C[C@]4(C)CCC5)C2C[C@@H]1C3 (stereo partly drawn)	-1.4
COC(=O)[C@@]1(Cc2ccc(F)cc2)[C@H]2c3cc(C(=O)N4CCCC4)n(C[C@H](O)CO)c3C[C@H]2CN1C(=O)c1ccccc1	-8.9
CC(=O)OC[C@@]12C(=O)[C@@H](O)[C@@H](C)[C@]3(C[C@@H](c4ccoc4)O[C@@H]3OC(C)=O)[C@H]1CCC[C@]21CO1	-5.9
Later entries
SMILES	GLA inh pH 4.5
COc1ccc2c(c1)CCC1C2CC[C@@]2(C)C1CC[C@@H]2NCCCCCCN1C(=O)C=CC1=O (stereo partly drawn)	-0.7
COC(=O)[C@H](Cc1ccccc1)NC(=O)O[C@@H]1Cc2cc(OC)ccc2O[C@H]1c1cccc(OC)c1	5.9
NS(=O)(=O)c1cc2c(cc1Cl)N[C@@H]([C@@H]1C[C@@H]3C=C[C@H]1C3)NS2(=O)=O	-0.3
CC12C=C(/C=C/CCc3ccco3)C(C)(C1)[C@H](CCc1ccco1)CC2=O (stereo partly drawn)	-9.4
C=C(C)C(=O)/C=C/c1ccc(Br)cc1	-3.9
CC1=C(CC(=O)O)c2cc(F)ccc2/C1=C\c1ccc(S(C)(=O)=O)cc1	-10.8
C[C@@]12C=Cc3occc3C1CC[C@@]13C[C@@H](CCC12)[C@@](O)(CO)C3 (stereo partly drawn)	-12.3
COC(=O)CC1[C@@]2(C)C[C@@]34OC5(C)OC6(CC[C@@]7(C)C(c8ccoc8)OC(=O)C(C(C)=O)C7[C@]6(O5)C(O)[C@@]3(O)C2O)[C@]14C (stereo partly drawn)	2.0
Cn1c(=O)c(C(=O)COC(=O)c2cc(C(F)(F)F)nc3c(C(F)(F)F)cccc23)c(N)n(Cc2ccccc2)c1=O	-0.8
COC(=O)CCCC1=CC2=CC(=O)C(C)(OC(=O)c3cccs3)C(=O)C2=CN1c1ccc(CO)cc1 (stereo not drawn)	6.5
CC(C)Nc1oc(-c2ccccc2)nc1-c1cccc2ccccc12	-2.1
O=C1N[C@H](Cc2ccccc2)C(=O)N1Cc1cccc2ccccc12	-2.9
CCCCCCN(C(=O)CCCCCN1C(=O)NC(C2CC2)C(C(=O)OCc2ccccc2)=C1C)C(C(=O)NCCCC)c1ccc(OCC(=O)OC)c(C(=O)OC)c1 (stereo not drawn)	-5.0
COC1=C[C@@H](C)C2CC3OC(=O)C[C@H]4C(C)=C(OC)C(=O)C([C@@]2(C)C1=O)[C@@]34C (stereo partly drawn)	0.8
Nc1nc2c(cnn2CCc2ccccc2)c2nc(-c3ccco3)nn12	1.8
CC[C@]1(O)C[C@@H]2CN(CCc3c([nH]c4ccccc34)[C@](C(=O)OC)(c3cc4c(cc3OC)N(C)[C@H]3[C@](O)(C(=O)OC)[C@@H](C(=O)OC)[C@@]5(CC)C=CCN6CC[C@@]43[C@@H]65)C2)C1	-8.0
COc1ccc([C@H]2Sc3ccccc3N(CCN(C)C)C(=O)[C@H]2OC(C)=O)cc1	6.2
CC(C)N1CCN(c2ccc(OC[C@@H]3CO[C@@](Cn4cncn4)(c4ccc(Cl)cc4Cl)O3)cc2)CC1	-4.0
COC(=O)C1=C(C)N(CC2CC2)C(=O)N[C@H]1CCc1ccccc1	-1.3
COC(=O)c1ccccc1C[C@]1(C(=O)OC)C=C[C@H](C)[C@@H](c2ccccc2)N1C(=O)C(F)(F)F	-2.1
CCCn1c(C)nc2c(N3CCC(N4CCN(C)CC4)CC3)nc(C)nc21	2.7
NC(=S)c1ccc[n+]([C@@H]2O[C@@H](COP(=O)([O-])OP(=O)(O)OC[C@H]3O[C@@H](n4cnc5c(N)ncnc54)[C@H](OP(=O)(O)O)[C@H]3O)C(O)C2O)c1 (stereo partly drawn)	3.7
CN(C)c1ccnc(-c2ccccc2C(F)(F)F)n1	-18.8

Some values from the list:
For GLA inh pH 4.5, Nc1nc2c(cnn2CCc2ccccc2)c2nc(-c3ccco3)nn12 has 1.8
For GLA inh pH 4.5, COc1ccc2c(c1)CCC1C2CC[C@@]2(C)C1CC[C@@H]2NCCCCCCN1C(=O)C=CC1=O (stereo partly drawn) has -0.7
For GLA inh pH 4.5, COC(=O)CCCC1=CC2=CC(=O)C(C)(OC(=O)c3cccs3)C(=O)C2=CN1c1ccc(CO)cc1 (stereo not drawn) has 6.5
For GLA inh pH 4.5, CCCn1c(C)nc2c(N3CCC(N4CCN(C)CC4)CC3)nc(C)nc21 has 2.7
For GLA inh pH 4.5, CC12C=C(/C=C/CCc3ccco3)C(C)(C1)[C@H](CCc1ccco1)CC2=O (stereo partly drawn) has -9.4

A portion of the library; the hit share may differ from the screen's.
